Source: PubChem (National Center for Advancing Translational Sciences (NCATS))
CtBP-E1A inh: qHTS Assay for Inhibitors of the CtBP/E1A Interaction; AlphaScreen GST-E1A/His-CtBP binding, 1536-well; stronger effect = lower value; control for the full effect not named in the record; activity change, % (no concentration beside the values); 0.49% of 340,000 active; in the data active means activity change below about -65%; inconclusive means about -30% to -65%; inactive means above about -30%; also: % is scaled to controls: 0 for no effect and ±100 for the full control effect; compound concentration not given in the record
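AlphaScreen with 125 nM GST-E1A and 125 nM His-CtBP (5X stocks) in Tris pH 8.0, 300 mM NaCl, BSA, Tween 20, TCEP. Compounds preincubated 2 h at 37 deg C, then glutathione donor/nickel acceptor beads added for 1 h at 37 deg C in dark.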
TRPV1 PAM: HTS Assay for Compounds that Act as Potentiators of the Vanilloid Receptor 1 | TRPV1-expressing cells, Fluo-8 calcium influx, capsaicin EC20 potentiation; host cell line not named in the record; control for the full effect not named in the record | potentiation, % at 8.33 µM | Transient receptor potential cation channel subfamily V member 1 (Homo sapiens), Q8NER1 | 0.02% of 320,000 active | AID 540277, 2011; active means potentiation above 80%; inconclusive means 30% to 80%; inactive means below 30%; also: 0% is about no effect
Target sequence (Q8NER1 whole entry, looked up): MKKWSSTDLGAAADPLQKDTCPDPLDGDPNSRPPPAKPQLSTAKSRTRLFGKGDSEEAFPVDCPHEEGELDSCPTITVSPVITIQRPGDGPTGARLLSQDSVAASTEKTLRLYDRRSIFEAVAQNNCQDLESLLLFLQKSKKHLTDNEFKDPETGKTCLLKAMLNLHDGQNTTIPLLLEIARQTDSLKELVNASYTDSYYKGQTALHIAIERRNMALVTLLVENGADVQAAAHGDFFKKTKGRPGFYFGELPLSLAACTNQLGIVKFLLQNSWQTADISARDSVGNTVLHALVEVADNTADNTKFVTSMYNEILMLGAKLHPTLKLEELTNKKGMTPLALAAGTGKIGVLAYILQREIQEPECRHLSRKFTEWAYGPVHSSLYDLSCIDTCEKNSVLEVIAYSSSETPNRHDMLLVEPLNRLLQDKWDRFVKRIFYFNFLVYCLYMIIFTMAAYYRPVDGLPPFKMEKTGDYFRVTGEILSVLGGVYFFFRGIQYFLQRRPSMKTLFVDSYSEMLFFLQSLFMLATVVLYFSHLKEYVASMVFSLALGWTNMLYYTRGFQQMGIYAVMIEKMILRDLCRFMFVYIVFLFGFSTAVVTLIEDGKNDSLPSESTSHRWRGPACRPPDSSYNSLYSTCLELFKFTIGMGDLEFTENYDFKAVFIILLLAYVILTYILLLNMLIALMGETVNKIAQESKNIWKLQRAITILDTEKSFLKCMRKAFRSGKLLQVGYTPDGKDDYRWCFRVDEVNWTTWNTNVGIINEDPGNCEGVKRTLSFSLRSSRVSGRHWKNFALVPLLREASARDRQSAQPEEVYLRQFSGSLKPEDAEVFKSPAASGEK
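Cells expressing TRPV1 were dye-loaded with Fluo-8 and read kinetically: 10 s baseline, 3 min after compound (agonist portion), then 2 min after EC20 capsaicin (allosteric enhancer portion). Calcium-bound dye fluorescence at 480/520 nm.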
ClpP mod: qHTS Assay for Activators of ClpP; Potency, µM (series often up to 57.5 µM), inactives show at the top dose activity change, negative = active; 1.9% of 340,000 active; purified B. subtilis ClpP, FRET peptide cleavage, 20 min; ATP-dependent Clp protease proteolytic subunit (Bacillus subtilis (strain 168)), P80244; AID 651965, 2013; active = well fitted falling curve with a large enough effect; inconclusive = small, poorly fitted or top-dose-only effect; inactive = no such curve, though single readings can be large or run the other way; also: potency is read from the fitted curve at half-maximal effect; the source files actives as falling curves though it sought activators and does not explain the sign; nearly all actives have a fitted effect of over 65% in size; many hits overshoot -100%
Target sequence (P80244 whole entry, looked up): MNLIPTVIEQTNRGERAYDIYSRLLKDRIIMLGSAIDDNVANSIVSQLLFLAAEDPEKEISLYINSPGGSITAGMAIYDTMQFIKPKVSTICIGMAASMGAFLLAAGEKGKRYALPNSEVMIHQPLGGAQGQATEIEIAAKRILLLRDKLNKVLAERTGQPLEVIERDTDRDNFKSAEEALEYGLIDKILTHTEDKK
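Purified B. subtilis ClpP, 10 microg/mL final in Tris/HCl pH8 with KCl, BSA, glycerol and Tween-20, cleaved an Abz/nitrotyrosine-quenched decapeptide. Fluorescence (ex 320, em 430) was read at 0 and 20 min at room temperature. Delta was normalized to 5.8 microM ADEP and DMSO/no-enzyme controls.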
Menin-MLL FL inh: qHTS Assay for Inhibitors Targeting the Menin-MLL Interaction in MLL Related Leukemias: Competition With Fluorescein Labeled MLL-derived Peptide; Fluorescence polarization, fluorescein-MLL peptide displacement from menin; FP activity change, % at 61.4 µM; 290,000 tested, under 10 active; AID 1766, 2009; inconclusive = falling polarisation curve, or a change in total fluorescence; inactive = total fluorescence flat and polarisation flat or rising; no compound was filed as active; the % refers to the polarisation; negative = inhibition;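 also: % of control where 0% means no effect; inhibitors lower the polarisation; unlabelled MLL peptide was the positive control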
gsp agonist: qHTS for Agonist of gsp, the Etiologic Mutation Responsible for Fibrous Dysplasia/McCune-Albright Syndrome: qHTS; gsp mutant cells, cAMP HTRF, 30 min; control for the full effect not named in the record; Potency, µM (highest dose often 76.9 µM), for inactives: at the top dose activation (cAMP increase), hits mostly activators; 0.13% of 340,000 active; AID 624287, 2012; active = well fitted activation curve with a large enough effect; inconclusive = small, poorly fitted or top-dose-only effect, or another doubt; inactive = no such curve, though single readings can be large or run the other way; cell line not stated here;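 also: phosphodiesterase inhibitor Ro 20-1724 added with compounds to block cAMP breakdown; potency is read from the fitted curve at half-maximal effect; nearly all actives have a fitted effect of over 60% in size; about a fifth of the inactives were tested at one dose only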
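Cells in DMEM/10% FBS with G418 were pretreated with compounds in DMSO plus […] (300 uM stock) for 30 min at 37C. cAMP was measured by HTRF (cAMP-d2 plus anti-cAMP antibody-K) after 30 min at room temperature.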
Sfp PPTase inh: qHTS Assay for Inhibitors of Bacillus subtilis Sfp phosphopantetheinyl transferase (PPTase); 3.5% of 310,000 active; AID 1490, 2009; 4'-phosphopantetheinyl transferase ffp (Bacillus subtilis), Q9F4F7; Potency, µM, for the others: max response, negative = inhibition, hits mostly inhibitors; Biochemical Sfp PPTase activity, qHTS; active = well fitted inhibition curve with a large enough effect; inconclusive = small, poorly fitted or top-dose-only effect, or another doubt; inactive = no such curve, though single readings can be large or run the other way;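 also: the enzyme is Sfp with the accession as filed and its product quenches rhodamine fluorescence; potency is read from the fitted curve at half-maximal effect; 0% = enzyme reaction without inhibitor and -100% = no enzyme wells; top concentration of the series not given in the record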
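Sfp 15 nM + cpd, 15 min RT; start w/ rhodamine-CoA 5 uM, BHQ-2-YbbR 12.5 uM (final); 50 mM Hepes pH 7.6, 10 mM MgCl2, 0.01% NP-40, 0.01% BSA; read 525/598 nm at 0 and 30 min.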
gsp antagonist: qHTS for Antagonists of gsp, the Etiologic Mutation Responsible for Fibrous Dysplasia/McCune-Albright Syndrome: qHTS | gsp-mutant cells, cAMP HTRF, 30 min; control for the full effect not named in the record | 0.4% of 340,000 active | Potency, µM (titrated, usually from 76.9 µM), inactives show top-dose activity change, negative = inhibition, most hits filed as inhibitors; active = falling curve of any shape with a large fitted effect; inconclusive = falling curve, mostly with a smaller effect; inactive = flat or rising curve; cell line not stated here;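 also: intracellular cAMP measured with PDE inhibitor Ro 20-1724 present during compound exposure; potency is read from the fitted curve at half-maximal effect; % is scaled to controls: 0 for no effect and ±100 for the full control effect; nearly all actives have a fitted effect of over 65% in size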
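HTRF cAMP read-out (cAMP-d2 plus anti-cAMP antibody-K in lysis buffer, 30 min RT). Before lysis, cells are exposed to compounds with […] for 30 min at 37C in DPBS containing Ca/Mg, BSA and Tween 20.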
* hit, by the source's call; ? = inconclusive; . = not tested or not shown; & = joins results of further samples; [ ] = remark or other dose.

Each structure is followed by: TRPV1 PAM	ClpP mod	gsp antagonist	Sfp PPTase inh	Menin-MLL FL inh	CtBP-E1A inh	gsp agonist
CC(=O)CCc1c(C)c2cccc(C)c2[nH]c1=O
  -1.0	-22.7%	?	3.0%	1.4	-10.6	-16.6%
CCC(=O)Nc1ccc(C(=O)CSc2nnc(-c3ccccc3F)n2C2CC2)cc1
  3.8	-1.5%	-13.0%	4.6%	3.0	-2.8	?
O=C(NCc1ccco1)c1ccc(Br)c(S(=O)(=O)N2CCCCC2)c1
  6.5	-0.8%	-14.0%	15.1%	1.2	-10.0	-5.1%
NC(=O)C1(N2CCCCC2)CCN(C(=S)NCCc2ccccc2)CC1
  -4.8	-0.5%	12.5%	27.1%	4.1	.	-93.9%[inhibitor]
COc1ccccc1/C=C/C(=O)/C=C/c1ccccc1O
  -5.5	2.0%	2.1%	-1.9%	2.6	0.0	-0.9%[15.4 µM]
O=C(CSc1ccc2ccccc2c1)NC1CCCc2ccccc21 (stereo not drawn)
  9.0	1.7%	-11.0%	-7.9%	3.3	2.5	-23.4%
Cn1c(=O)c2c(SCc3cccnc3)nc(CC(C)(C)C)nc2n(C)c1=O
  .	0.6%	?	56.2µM*	0.8	1.5	-2.9%
CCC(=O)c1ccc(OCC(=O)OCC(=O)NCC2CCCO2)cc1 (stereo not drawn)
  15.4	-1.9%	-9.0%	28.5%	.	-2.8	?
CC(=O)Nc1ccc(S(=O)(=O)NC2C3(C)CCC(C3)C2(C)C)cc1 (stereo not drawn)
  4.2	-3.5%	12.6%	10.7%	4.7	-3.9	-28.8%
CC(C)(C)NC(=O)C(c1ccc(-c2ccccc2)cc1)N(C[C@H]1CC[C@@H]([C@@H]2CC[C@H](CO)O2)O1)C(=O)c1ccccc1F (stereo partly drawn)
  .	3.0%	-10.7%	.	.	24.8	.
CN(Cc1cnn(C)c1)C(=O)C1CCC(=O)N(Cc2cccc(F)c2)C1 (stereo not drawn)
  10.3	-0.1%	15.0%	19.9%	.	1.1	1.0%
CC(=O)Nc1ccc(S(=O)(=O)Nc2ccccc2C(=O)N2CCCC2)cc1
  0.5	.	-13.6%	-3.3%	-0.1	-1.6	-20.0%[15.4 µM]
C=CCC[C@@H](Cc1ccc(F)cc1)C(=O)OC[C@@H](Cc1c[nH]c2ccccc12)NC(=O)[C@H](CC=C)CC(=O)N[C@H](CO)Cc1ccccc1
  .	-1.8%	6.0%	.	.	1.3	-24.2%
CCO[C@H]1OC(C(=O)N2CCN(Cc3ccc4c(c3)OCO4)CC2)=C[C@@H](c2ccc(C(F)(F)F)cc2)[C@@H]1CCCO
  -7.3	-0.1%	-11.1%	4.1%	0.1	-22.5	.
CCc1nc2sc3c(=O)n(N)cnc3c2c2c1COC(C)(C)C2
  -3.6	.	.	3.8%	2.1	.	.
O=C1CCCC(O)=C1Sc1cc(Cl)c(Cl)cc1Cl
  .	-0.4%	-0.6%	.	.	5.8	-7.3%
O/N=C(\c1ccc(Cl)cc1)c1cc2ccccc2o1
  5.1	-0.3%	3.5%	-3.9%	0.3	10.8	-1.7%
CCOC(=O)C1(Cc2cccc(F)c2)CCN(C(=O)C2CCCO2)CC1 (stereo not drawn)
  2.9	.	2.3%	1.8%	-0.9	0.2	-2.5%[15.4 µM]
CC(C)(C)C(=O)Nc1c2c(nn1-c1ccc(F)cc1)CSC2
  9.8	1.4%	6.8%	18.8%	-5.6	.	-2.3%
COc1cc(O)c(NC(C)=O)c2nonc12
  .	-0.8%&-2.6%	-10.3%	35.5µM*	3.2	0.4	18.0%
Cn1nnnc1SCC(=O)N1CCN(C(c2ccccc2)c2ccccc2)CC1
  -18.3	-0.2%	11.5%[15.4 µM]	4.5%	1.4	3.2	-11.7%
Cc1ccc(N(C(=O)NC2CCCCC2)C2=NCCCCC2)cc1
  -9.5	-1.0%	14.6%	15.5%	-1.4	0.9	-1.9%
CCn1cc(CNC(=O)c2cc(COc3ccc(F)cc3F)on2)cn1
  -4.0	-1.2%	0.5%	21.2%	0.6	.	34.8%
Cc1nn(C)cc1-c1csc(N)n1
  12.0	.	3.7%	2.0%	-0.1	4.4	5.1%[15.4 µM]
CCSc1nnc(NC(=O)c2csc3c2CCC(C)C3)s1 (stereo not drawn)
  1.3	-3.6%	0.8%	10.2%	1.9	4.6	-6.9%
COc1ccc(C2=NN(C(=O)CSC3=NN4CCCC(=O)N=C4S3)C(c3cccc(OC)c3OC)C2)cc1 (stereo not drawn)
  4.9	-5.8%	?	14.4%	1.1	3.7	-12.1%
COC(=O)c1ccc(CNC(=O)c2c3c(nc4ccccc24)CCN(Cc2ccccc2)C3)cc1
  -5.4	-5.8%	-1.7%	-11.3%	0.4	-11.6	-9.3%
CCCc1nc2ccccc2c(C(=O)OCC(=O)Nc2ccc(S(=O)(=O)N3CCOCC3)cc2)c1CC
  5.4	0.2%	-11.1%	8.6%	1.1	-7.8	1.3%
CCOc1cc(/C=N/NC(=O)c2cccc(S(=O)(=O)N3CCCC3)c2)ccc1OCC(=O)N(C)C
  26.1	.	8.1%	.	.	-4.1	-29.5%[15.4 µM]
COC(=O)c1ccccc1NC(=O)N1CCN(c2ccc(F)cc2)CC1
  -9.4	0.7%	-5.5%	-7.7%	-0.9	-3.1	-57.6%[inhibitor]
CCN1/C(=C/c2cc[n+](CCCS(=O)(=O)[O-])c3ccccc23)Sc2ccccc21
  13.3	.	-8.2%	3.2%	?	-12.2	-5.8%[15.4 µM]
C=CCNc1sc(C(=O)C(C)(C)C)c(N)c1C#N
  -7.6	-1.4%	0.9%	-3.9%	2.9	-5.6	-7.5%
COc1ccccc1-c1cn(S(=O)(=O)c2ccc(F)cc2)nc1N
  -22.2	-0.8%	-12.6%	-0.1%	2.6	-0.8	6.2%
O=C(COC(=O)CCCN1C(=O)c2cccc3cccc(c23)C1=O)Nc1ccc(Cl)cc1
  -7.6	.	-16.8%	23.3%	5.5	-13.6	12.1%[15.4 µM]
CC1CCN(Cc2c(C(=O)N/N=C/c3cccc(Cl)c3)nnn2-c2nonc2N)CC1
  -4.1	1.1%	11.4%	-5.1%	.	.	-3.9%
COc1cccc(C(=O)Nc2ccc(NC(=O)C3CCCCC3C(=O)O)cc2)c1 (stereo not drawn)
  9.1	-2.7%	10.3%	16.3%	.	0.9	8.5%[15.4 µM]
CCOCCCNS(=O)(=O)c1ccc2c(c1)CCN2C(=O)CC
  13.2	0.2%	-9.6%	20.0%	-1.7	2.7	?
Cc1ccc(CN(C)C(=O)CN2C(=O)NC3(CCCC3)C2=O)o1
  5.1	-3.3%	6.6%	.	.	.	16.7%
O=C(NCCN1CCCC1)C1COc2ccccc2O1 (stereo not drawn)
  28.4	1.1%	9.3%	7.2%	-2.2	-6.3	-30.9%[inhibitor]
O=C1CN(C(=O)c2ccccc2)C(c2ccccc2)c2cc(F)ccc2N1 (stereo not drawn)
  0.3	-0.5%	-6.0%	4.7%	-7.3	4.9	-2.1%
COc1ccc(N2C(=O)CN=C2Nc2nc(C)cc(C)n2)cc1OC
  0.2	-0.1%	2.8%	-18.0%	0.6	0.0	-7.4%
COc1ccc(-n2c(C)cc(C(=O)CSc3nnc(-c4cccs4)o3)c2C)cc1
  0.7	-11.9%	?	0.9%	4.6	-17.0	-3.9%
Cc1ccc(N(CC(=O)NC(C)(C)C)C(=O)CCC(=O)Nc2ccccn2)cc1
  .	0.3%	.	.	.	1.0	?
Cc1cccc(-c2cc3nc(C)cc(N4CC(C)CC(C)C4)n3n2)c1 (stereo not drawn)
  2.2	0.794µM*	-0.9%	-8.7%	2.2	-2.1	21.4%
Cc1[nH]nc(NNC(=O)c2ccccc2)c1[N+](=O)[O-]
  -0.1	.	-0.4%	-29.2%	4.5	4.5	-28.1%
O=C(C(c1ccccc1)C(O)c1ccccc1)N1CCOCC1 (stereo not drawn)
  .	.	0.7%	.	.	5.2	-12.3%
O=C(NCCc1ccccc1)C1CC(c2ccccc2O)=NO1 (stereo not drawn)
  -0.7	0.2%	-16.9%	-0.3%	-0.3	4.1	-31.0%[inhibitor]
CN(C)c1ccc(NC(=O)Nc2ccc3c(c2)nnn3C)cc1
  -13.3	-0.4%	?	14.8%	1.7	-0.6	-9.9%[15.4 µM]
COc1ccc(CC(=O)N[C@@H]2c3cc(OC)c(OC)cc3C[C@H]2OCc2ccccc2)cc1
  .	1.8%	-7.5%	.	.	-1.9	.
CCOC(=O)N1CC(C)N(CC(O)CN2CCOCC2)CC1C (stereo not drawn)
  .	.	12.6%	.	.	0.2	-2.2%
CC12CCC(=O)N1C(C(=O)Nc1ccccc1F)CS2 (stereo not drawn)
  11.9	-1.7%	5.5%	.	.	7.0	12.3%[15.4 µM]

Shown as a hit in Sfp PPTase inh, among the entries above:
Structure,gsp antagonist,Sfp PPTase inh,Menin-MLL FL inh,CtBP-E1A inh,gsp agonist
Cn1c(=O)c2c(SCc3cccnc3)nc(CC(C)(C)C)nc2n(C)c1=O,?,56.2µM*,0.8,1.5,-2.9%
COc1cc(O)c(NC(C)=O)c2nonc12,-10.3%,35.5µM*,3.2,0.4,18.0%
